Source: PubChem (Broad Institute)
rRNA inh HTS = reduced GFP signal of wild-type E. coli, primary screen, bacterial rRNA inhibitor project, GFP/RFP fluorescence, OD600, single point. GFP signal change (wild-type ribosome), % (concentration not given with the values). E. coli WT GFP vs humanized-ribosome RFP mutants, 24 h; hits give low values; DMSO median 0, no signal -100. AID 720706, 2013. hit rate 1.6% among 350,000;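 active = significant combined selectivity score with lowered wild-type GFP, culture density cut under 30%, mutant RFP and density less affected; inactive = any of these conditions unmet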; also: one replicate is shown; some compounds called inactive have numbers as strong as hits
Beta cell apopt = inhibitors of cytokine-induced beta cell apoptosis, primary screen, luminescence. INS-1E cytokine-induced death, ATP luminescence, 48 h; percent of positive-control rescue, neutral wells zero. protection from apoptosis, % (test concentration not listed). hit rate 0.8% among 300,000. AID 435005, 2010;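 active = all replicates at 75% or more, or half of them and the mean; inconclusive = half reach 75% but not the mean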;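 also: 0% = cytokine-treated negative control wells and 100% = positive control rescue; higher means more ATP so stronger rescue from cytokine killing; wells of about 40 µL received 100 nL stock; the first replicate is given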
T cruzi repl = inhibitors of intracellular T. cruzi growth, primary screen, luminescence, NIH3T3 host cells | AID 1885, 2009 | T. cruzi beta-gal in NIH3T3, 90 h | inhibition, % (no concentration beside the values) | hit rate 1.4% among 300,000;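 active = mean inhibition across valid replicates above about 55%, limit read from the data; inconclusive = mean below that limit but half or more replicates reach it; inactive = mean below it, under half of replicates reach it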;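 also: signal also drops with host cell toxicity which is not excluded here; 0% = plate median of DMSO wells and 100% = zero luminescence signal; higher percent means less beta-gal luminescence so fewer parasites; stock transfer was 50 nL into about 50 µL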
ALR inh = inhibitors of human ALR sulfhydryl oxidase, primary screen, biochemical, H2O2 detection, HRP-luminol luminescence, single point | FAD-linked sulfhydryl oxidase ALR (Homo sapiens), P55789 | purified ALR, DTT oxidation | inhibition, % (no concentration beside the values) | hit rate 3.8% among 290,000;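 active = mean and each replicate at 75% or more; inconclusive = only one of the two met; inactive = neither met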;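 also: stock transfer was 7.5 nL into about 7.5 µL; 0% = neutral wells and 100% = wells with inactivated enzyme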
Target sequence (P55789 whole entry, looked up): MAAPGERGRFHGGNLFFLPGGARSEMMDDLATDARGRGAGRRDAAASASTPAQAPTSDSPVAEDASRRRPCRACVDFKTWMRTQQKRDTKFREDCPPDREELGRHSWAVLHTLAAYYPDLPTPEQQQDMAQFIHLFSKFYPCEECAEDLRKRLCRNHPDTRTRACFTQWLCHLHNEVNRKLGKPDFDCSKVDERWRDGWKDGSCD
Calb FLC = C. albicans growth inhibition with fluconazole, primary screen, CaCi-2 strain, Alamar Blue fluorescence. C. albicans CaCi-2 (fluconazole-resistant clinical isolate) + fluconazole, 48 h. growth inhibition, % (concentration not given with the values). hit rate 0.57% among 300,000;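 active = most replicates above 75%; inconclusive = exactly half above 75%; inactive = most below 75%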;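 also: all wells also contain fluconazole at 8 µg/ml as a sub-toxic cotreatment; 0% = median of DMSO wells and 100% = median of geldanamycin control wells; wells of about 8 µL received 7.5 nL stock; the first replicate is given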
MLL AF4-AF9 inh = inhibitors of AF4 peptide binding to AF9, primary screen, biochemical, AlphaScreen, biotin-AF4 peptide, FLAG-AF9, single point. Protein AF-9 (Homo sapiens), P42568. hit rate 0.47% among 350,000. inhibition, % at 10 µM;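 active = every replicate reaching a set inhibition limit, whatever the replicate mean, cut at about 25% in these data; inconclusive = mean inhibition reaches that limit but some replicates miss it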;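 also: 0% = plate neutral control median and 100% = total signal loss; the record names both 10 and 1 µM as test concentration; the first replicate is given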
Target sequence (P42568 whole entry, looked up): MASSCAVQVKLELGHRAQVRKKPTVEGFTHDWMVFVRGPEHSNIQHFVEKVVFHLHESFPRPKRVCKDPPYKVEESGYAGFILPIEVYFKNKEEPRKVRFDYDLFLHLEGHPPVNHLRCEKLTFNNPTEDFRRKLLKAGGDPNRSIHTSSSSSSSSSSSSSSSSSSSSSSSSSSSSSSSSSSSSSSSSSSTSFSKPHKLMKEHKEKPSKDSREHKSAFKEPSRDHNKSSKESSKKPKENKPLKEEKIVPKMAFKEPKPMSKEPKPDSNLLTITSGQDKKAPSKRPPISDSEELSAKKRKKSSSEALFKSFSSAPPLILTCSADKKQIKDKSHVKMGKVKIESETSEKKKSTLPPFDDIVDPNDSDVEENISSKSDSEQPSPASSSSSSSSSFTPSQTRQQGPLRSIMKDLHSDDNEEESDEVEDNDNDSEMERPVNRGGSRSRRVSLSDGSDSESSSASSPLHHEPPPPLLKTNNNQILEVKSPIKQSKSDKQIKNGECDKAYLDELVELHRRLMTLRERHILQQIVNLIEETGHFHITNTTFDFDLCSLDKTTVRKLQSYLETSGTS
FGF22 binding = binders of human FGF22 protein, primary screen, FGF22 synaptogenesis inhibitor project, biophysical, thermal shift, single point | recombinant FGF22 thermal shift, SYPRO orange fluorescence; percent of sucrose octasulfate shift, DMSO zero | calls only at 9.99 µM | AID 651658, 2012 | Fibroblast growth factor 22 (Homo sapiens), Q9HCT0 | hit rate 1.5% among 340,000;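 active = melting point raised past a set limit in the mean and every replicate; inconclusive = no clear call; three in four hits are not shown here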
Target sequence (Q9HCT0 whole entry, looked up): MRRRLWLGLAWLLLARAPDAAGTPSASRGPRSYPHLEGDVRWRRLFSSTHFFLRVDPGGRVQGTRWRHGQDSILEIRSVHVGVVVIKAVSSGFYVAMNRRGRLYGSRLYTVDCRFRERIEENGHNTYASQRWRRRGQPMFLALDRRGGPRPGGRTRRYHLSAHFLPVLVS
RanGTP-Impb inh = inhibitors of RanGTP-importin-beta interaction, primary screen, biochemical, FRET, CFP-Ran, YFP-importin-beta, homogeneous. inhibition, % (concentration not given with the values). Ran GTPase (GTP-bound) - importin-beta complex. hit rate 1.1% among 300,000. cell-free CFP-Ran/YFP-importin-beta FRET ratio;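 active = most replicates above 15%; inconclusive = exactly half above 15%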;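 also: 0% = DMSO wells and 100% = Ran loaded with GDP instead of GTP; wells of about 40 µL received 100 nL stock; the first replicate is given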
rRNA inh HTS OD600 = recorded beside rRNA inh HTS, whose call it bears; OD600 change, %; measured here: OD600 growth;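 optical density of the mix in the first replicate; 0 = DMSO median and -100 = no signal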
rRNA inh HTS RFP = further read-out of rRNA inh HTS, marked with its call; RFP signal change, %; measured here: RFP humanized mutant strains;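 first replicate; 0 = DMSO median and -100 = no signal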
* marks the source's active call; other numbers are inactive results; i = inactive; ? = inconclusive; . = no result given; & = joins results of further samples. These rows are one share of the data; rates above refer to the full screens.

mol | rRNA inh HTS OD600 | MLL AF4-AF9 inh | rRNA inh HTS RFP | Calb FLC | T cruzi repl | rRNA inh HTS | Beta cell apopt | RanGTP-Impb inh | ALR inh | FGF22 binding
Cc1ccc(S(=O)(=O)NCc2ccncc2)cc1C(=O)NCC(C)C | 11 | -1.6 | 5.4 | 3 | -9 | 15 | 7 | 0.8 | 14 | i
COCc1cc(C)nc(SCC[N+](C)(C)CC(=O)Nc2cccc(C(F)(F)F)c2)c1C#N | -44 | 8.1 | -15 | -36 | -13 | -46 | -12 | -2.6 | -34 | i
CNC(=O)c1ccsc1NC(=O)C1CCCN1S(=O)(=O)c1cccs1 (stereo not drawn) | 2 | 3.3 | -2.0 | 0 | -7 | 2 | -5 | -2.0 | 11 | i
O=C(NC1(O)C(=O)c2ccccc2C1=O)c1c(Cl)cccc1Cl | . | -4.6 | . | -6 | -14 | . | -3 | -0.4 | 9 | i
CCOc1ccc(CCNC(=O)COC(=O)/C=C/c2ccco2)cc1OCC | 1 | 1.8 | 2.3 | 7 | -5 | 14 | -4 | 2.7 | -8 | i
O=C(/C=C/c1ccc([N+](=O)[O-])cc1)/C=C/c1ccco1 | 14 | -3.2 | -4.7 | 2 | 22 | 8 | 2 | -10 | . | i
Cc1ccc(C(=O)OCN2C(=O)c3ccccc3C2=O)cc1S(=O)(=O)N1CCOCC1 | 4 | -0.7 | 4.6 | -1 | -4 | 3 | 4 | 3.9 | -1 | i
Nc1ccc(S(=O)(=O)Nc2cnc3ccccc3n2)cc1 | 5 | -1.8&-2.1 | -1.8 | 5 | -1 | 19 | -2 | -2.1 | -12&-6 | i
CCC(C)(C)NC(=O)C(c1ccccc1F)N(Cc1ccco1)C(=O)Cn1nnc2ccccc21 (stereo not drawn) | . | . | . | -4 | 31 | . | 4 | 9.2 | -4 | .
Cc1ccc(NC(=O)c2nnn(CC(=O)Nc3ccc4c(c3)OCO4)c2N)cc1C | 7 | 1.3 | 1.1 | 9 | 10 | -1 | . | 3.0 | -2 | i
CN(C)CCN(Cc1cccs1)c1ccccn1 | . | -1.1 | . | . | 7 | . | 2 | 3.9 | -19 | i
CCOc1cc(/C=N/n2c(C)nc3sc(C)c(C)c3c2=O)ccc1O | -7 | -0.2 | 2.8 | -1 | 6 | -8 | 6 | 3.1 | -4 | i
Cn1cc(CN(CCO)Cc2cccs2)c(-c2cccc(Cl)c2)n1 | -13* | 3.9 | -1.4* | 7 | -5 | -31* | 6 | -3.1 | . | i
C=CCSc1nc(N)c(C(=O)Nc2ccccc2OC)cc1C(=O)Nc1ccccc1 | . | . | . | 3 | 20 | . | 0 | 0.2 | -10 | .
CC(C#N)Sc1ccc(S(=O)(=O)N2CCCC2)cn1 (stereo not drawn) | 12 | -0.5 | -3.7 | . | . | 10 | -5 | . | 0 | i
COC(=O)c1cc(Br)c(=O)n(Cc2ccco2)c1 | . | . | . | -6 | -1 | . | -7 | 2.7 | -15 | .
Cc1ccc(Cl)cc1NC(=O)NCc1ccccn1 | 0 | 0.0 | -0.1 | -1 | 1 | 2 | -4 | ? | -4 | i
Cc1noc(C)c1CSc1ccccc1C(=O)OC(C)C(N)=O (stereo not drawn) | 20 | -5.3 | 2.3 | -4 | 1 | 10 | . | -0.1 | -8 | i
N#C/C(=C\c1cc(Cl)ccc1O)C(=O)NC1CCCCC1 | 3 | 1.8 | 4.9 | -3 | -9 | 3 | -3 | -1.4 | -4 | i
CNCC(O)c1ccc(OC(=O)C(C)(C)C)c(OC(=O)C(C)(C)C)c1 (stereo not drawn) | . | -3.9 | . | . | . | . | -6 | . | -1 | i
Cc1nn(CC(=O)NC2CCCC2)c(C)c1[N+](=O)[O-] | 1 | 1.0 | -1.5 | . | . | 4 | -3 | . | 0 | i
O=C(COc1cccc(Oc2ccccc2)c1)Nc1ccc(SC(F)F)cc1 | . | . | . | 2 | -8 | . | -4 | -4.3 | -13 | .
CC(C)N1CC(C(=O)Nc2ccccc2)CC1=O (stereo not drawn) | . | . | . | 1 | -22 | . | 0 | -1.0 | 1 | .
COc1ccc(OCC2CCNCC2)cc1 | 2 | -4.0 | 18 | -12 | 9 | 1 | -2 | -0.9 | -10 | i
Cc1cc(C(=O)N2CCN(c3ccc([N+](=O)[O-])cc3)CC2)n[nH]1 | -1 | 1.3 | 0.5 | 6 | 7 | -12 | 4 | 2.0 | -1 | i

Compounds above that have two or more sulfur atoms (2):
mol | rRNA inh HTS OD600 | MLL AF4-AF9 inh | rRNA inh HTS RFP | Calb FLC | T cruzi repl | rRNA inh HTS | Beta cell apopt | RanGTP-Impb inh | ALR inh | FGF22 binding
CNC(=O)c1ccsc1NC(=O)C1CCCN1S(=O)(=O)c1cccs1 (stereo not drawn) | 2 | 3.3 | -2.0 | 0 | -7 | 2 | -5 | -2.0 | 11 | i
CC(C#N)Sc1ccc(S(=O)(=O)N2CCCC2)cn1 (stereo not drawn) | 12 | -0.5 | -3.7 | . | . | 10 | -5 | . | 0 | i

Additional entries.
mol | rRNA inh HTS OD600 | MLL AF4-AF9 inh | rRNA inh HTS RFP | Calb FLC | T cruzi repl | rRNA inh HTS | Beta cell apopt | RanGTP-Impb inh | ALR inh | FGF22 binding
c1nc(C2CCCCC2)cc2cc3c(cc12)OCO3 | -44 | 1.3 | -10 | . | . | -33 | -3 | . | . | i
Cc1ccc(Cl)cc1N(CC(=O)NC1CCCCC1)S(C)(=O)=O | . | . | . | 7 | 15 | . | -6 | 3.6 | -8 | .
CN1CCN(c2ccccc2NC(=O)c2ccc(N3CCCCC3)c([N+](=O)[O-])c2)CC1 | -41 | 27* | -3.3 | -9 | 6 | -30 | -1 | -1.6 | . | i
COc1cc(OC)cc(C(=O)NC(C(=O)N2CCc3ccccc3C2)C(C)C)c1 (stereo not drawn) | -17 | -6.3 | -3.5 | 3 | 10 | -3 | . | 2.5 | -7 | i
O=C(Nc1ccccc1)N1CCN(c2nc3ccccc3s2)CC1 | . | . | . | 8 | -57 | . | 6 | 5.4 | -4 | .
Cc1c(C(=O)NCc2cccnc2)oc2c1C(=O)CC(C)(C)C2 | . | . | . | 3 | -6 | . | 0 | 7.1 | 7 | .
O=C(O)Cc1nn(Cc2ccc(Cl)cc2)c(=O)c2ccccc12 | -3 | -2.4 | 2.0 | -11 | 1 | -4 | . | -4.8 | -30 | i
COc1ccc(OC)c(Cc2nnc(CCC(=O)NC3CCCCCCC3)o2)c1 | . | 1.8 | . | -35 | 34 | . | 1 | 3.4 | -3 | i
Cc1nc(N(C)C)c2sc(=S)n(Cc3ccccc3)c2n1 | -4 | 2.8 | -2.3 | 11 | 24 | 0 | -1 | 1.8 | 2 | i
Cc1cc(C)c(NC(=O)CN2CCN3CCCC3C2)c(C)c1 (stereo not drawn) | 9 | -0.2 | 2.7 | ? | 16 | 3 | -8 | -1.4 | 1 | i
COc1ccc(-c2onc(C)c2-c2cscn2)c(O)c1 | 2 | -0.6 | 1.3 | -11 | 2 | 3 | -2 | 3.3 | . | i
Cc1nnc(SCC(=O)c2ccccc2F)n1Cc1ccccc1 | 7 | 3.9 | 3.7 | -9 | -7 | -3 | 4 | 5.5 | 94* | i
C[C@H](NC(N)=O)C(=O)Nc1ccc(OCc2ccccc2)cc1 | 3 | 0.1 | -3.5 | -3 | -32 | 3 | -3 | -1.4 | 0 | .
CCC(=O)N1CCc2cc(S(=O)(=O)CCC(=O)NCc3ccc4c(c3)OCO4)ccc21 | . | . | . | -1 | 7 | . | -2 | 3.8 | -9 | .
Cc1ccc(C2=N/C(=C\c3cccs3)C(=O)N2Nc2ccccc2)cc1 | . | . | . | -1 | 8 | . | 0 | 2.8 | -3 | .
Cc1ccc2sc(NC(=O)CN3C(=O)c4ccccc4C3=O)nc2c1C | 1 | 2.4 | 0.4 | 4 | -12 | -1 | . | -1.5 | -1 | i
CCCCn1c(SCc2nc(N)nc(Nc3ccccc3C)n2)nc2ccccc2c1=O | . | . | . | 12 | 29 | . | -1 | 3.8 | 0 | .
CC(C)NC(=O)CCCOc1ccc(Cl)cc1Cl | -1 | 0.9 | 0.7 | 3 | 2 | -9 | -3 | -0.5 | -3 | i
Fc1ccc2cnc(-c3ccccc3)c(-c3cc(C(F)(F)F)cc(C(F)(F)F)c3)c2c1 | -11 | -3.3 | 19 | . | . | 7 | -6 | . | 1 | i
CNC(=S)Nc1ccc(Cc2ccncc2)cc1 | 11 | 1.3 | 1.0 | 2 | 8 | 7 | -2 | 2.6 | -1 | i
COC(=O)c1cc(Br)ccc1NC(=O)Nc1ccccc1 | 4 | 0.6 | 0.4 | -9 | -19 | 10 | -8 | 0.8 | -3 | i
CC(=O)c1cccc(NC(=O)c2cc(C)no2)c1 | 6 | -6.8 | 1.0 | -7 | 2 | 7 | . | -4.7 | -8 | i
Cc1cccc2[nH]c(SCC(=O)O)nc12 | 3 | -0.1 | 0.2 | -10 | -1 | 16 | . | -1.8 | -2 | .
COc1cc(/C=C/c2cc[n+](C)cc2)ccc1OCC(=O)Nc1ccc(Cl)c(Cl)c1 | -79 | ? | -20 | 7 | 12 | -64 | 31 | -85 | -9 | i
Cc1cc(C)cc(OCC(=O)NNC(=S)NC(=O)C2CC2)c1 | -28 | -0.6 | -3.9 | 119* | -9 | -7 | 8 | 1.1 | 35 | i

Only rRNA inh HTS OD600, ALR inh and Calb FLC (2 entries from above):
canonical_smiles,rRNA inh HTS OD600,ALR inh,Calb FLC
Fc1ccc2cnc(-c3ccccc3)c(-c3cc(C(F)(F)F)cc(C(F)(F)F)c3)c2c1,-11,1,.
Cc1nc(N(C)C)c2sc(=S)n(Cc3ccccc3)c2n1,-4,2,11

New compounds follow:
mol | rRNA inh HTS OD600 | MLL AF4-AF9 inh | rRNA inh HTS RFP | Calb FLC | T cruzi repl | rRNA inh HTS | Beta cell apopt | RanGTP-Impb inh | ALR inh | FGF22 binding
c1ccc(C2(c3ccccc3)OCC(Cn3cncn3)O2)cc1 (stereo not drawn) | . | . | . | -5 | -3 | . | -3 | -1.4 | -6 | .
O=C(c1ccccc1)c1cnc(Nc2ccc(Cl)c(Cl)c2)s1 | . | . | . | 42 | 8 | . | -1 | 0.6 | . | .
O=C(c1cnn2c(C(F)F)cc(C3CC3)nc12)N1CCc2ccccc2C1 | . | . | . | 3 | 22 | . | 0 | 1.6 | . | .
O=C1NCCN1CCNS(=O)(=O)c1cc(C(F)(F)F)cc(C(F)(F)F)c1 | 6 | -1.1 | 8.2 | ? | -4 | 2 | -6 | 1.7 | -7 | i
O=C(COc1ccc(Cl)cc1Cl)NCc1ccco1 | . | . | . | -12 | -11 | . | -6 | -0.2 | 20 | .
